Screens (PubChem BioAssay)
GLA inh pH 4.5 – blocks human alpha-galactosidase A at pH 4.5; P06280; AID 1467; 230,000 tested, under 10 active; purified enzyme, 4-MU-alpha-Gal fluorescence, pH 4.5; activity change, negative = inhibition, % at 105 µM; inconclusive = small, poorly fitted or top-dose-only inhibition, or a rising curve; inactive = flat fitted curve, though single readings scatter; no compound was filed as active;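 note: 0% = full activity with enzyme and -100% = basal without enzyme; dose as in the result columns while the protocol names 77 µM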
Rango complex inh – Rango-importin beta binding inhibition | Potency, µM (top dose mostly 92.2 µM), for inactives: at the top dose inhibition of complex formation | Rango CFP/YFP FRET sensor + importin beta, 45 min | 340,000 compounds, 0.031% hits; active = rising FRET ratio curve, often small or poorly fitted; inconclusive = mostly compound fluorescence or quenching in the first reads; inactive = flat curves in all reads;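 note: potency is the fitted concentration of half-maximal effect; 0% = DMSO wells and 100% = buffer wells lacking importin beta; nearly all actives have a fitted effect of over 15% in size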
Target sequence (Q14974 whole entry, looked up): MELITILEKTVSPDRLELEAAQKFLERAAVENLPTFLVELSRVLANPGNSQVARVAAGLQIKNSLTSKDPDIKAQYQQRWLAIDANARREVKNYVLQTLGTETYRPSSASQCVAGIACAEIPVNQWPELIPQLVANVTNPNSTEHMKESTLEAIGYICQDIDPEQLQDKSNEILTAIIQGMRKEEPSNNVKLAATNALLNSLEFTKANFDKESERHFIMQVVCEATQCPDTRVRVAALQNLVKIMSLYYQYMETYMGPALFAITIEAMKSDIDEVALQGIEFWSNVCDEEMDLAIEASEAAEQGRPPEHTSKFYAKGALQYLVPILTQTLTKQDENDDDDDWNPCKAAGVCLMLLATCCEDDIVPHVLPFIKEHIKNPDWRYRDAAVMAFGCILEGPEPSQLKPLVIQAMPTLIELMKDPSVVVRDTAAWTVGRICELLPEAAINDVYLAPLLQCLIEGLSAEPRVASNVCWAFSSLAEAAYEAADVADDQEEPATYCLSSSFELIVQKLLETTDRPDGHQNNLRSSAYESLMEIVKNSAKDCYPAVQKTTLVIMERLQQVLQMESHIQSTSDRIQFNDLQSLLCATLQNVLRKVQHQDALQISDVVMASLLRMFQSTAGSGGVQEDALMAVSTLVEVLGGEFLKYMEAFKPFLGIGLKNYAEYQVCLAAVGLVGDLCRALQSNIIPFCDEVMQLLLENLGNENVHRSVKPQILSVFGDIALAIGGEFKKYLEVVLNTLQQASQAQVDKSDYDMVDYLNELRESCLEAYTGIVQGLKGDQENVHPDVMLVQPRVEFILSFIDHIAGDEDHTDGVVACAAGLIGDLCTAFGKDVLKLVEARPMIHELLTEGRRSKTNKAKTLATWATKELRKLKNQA
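FRET biosensor (snurportin 1 IBB flanked by EYFP and cerulean), 50 nM, with compound 5 min, then 0.125 microM importin beta in PBS, 1 mM DTT, 0.02% Tween-20, 0.1% BSA. CFP/YFP ratio read after 45 min at room temperature; pre-read flags interference.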
Rango release inh – inhibitors of RanGTP-induced Rango-importin beta complex dissociation | Biochemical FRET Rango-importin beta, RanGTP-induced dissociation | O95149+P62826 | 340,000 compounds, 0.071% hits | Potency, µM (highest dose often 46.1 µM), for the others: at the top dose activity change, negative = inhibition | AID 540253; active means falling FRET ratio curve, often poorly fitted, with flat reads before Ran was added; inconclusive means other falling curves, or compound fluorescence or quenching; inactive means flat or rising ratio curve;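 note: potency is the fitted concentration of half-maximal effect; % of control where 0% means no effect; nearly all actives have a fitted effect of over 45% in size; -100% = wells without RanGTP and RCC1; the record marks most hits as doubtful in a second field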
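Rango (0.1 uM)–importin beta (0.25 uM) complex; RanGTP-RCC1 trigger; 45 min RT; CFP/YFP FRET read.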
miR-21 FLuc – raises the signal of a miR-21 reporter. HeLa miR-21 FLuc reporter, luciferase, 48 h. Potency, µM (doses to about 38.3 µM), inactives show at the highest dose reporter change, positive = more light. 340,000 tested, under 10 active; active = well fitted rising curve with a large enough effect; inconclusive = small, poorly fitted or top-dose-only effect; inactive = no such curve, though single readings can be large or run the other way;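 note: % of control where 0% means no effect; miR-21 action dims this reporter so a rising signal means less miR-21 action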
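HeLa miR-21-FLuc reporter line, endogenous miR-21; 2000 cells/well in DMEM/10% FBS; compound titration up to ~40uM final, 48 h, 37 degree Celsius; luciferase detection reagent, 15 min lysis, CCD luminescence.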
* = called active by the depositor. An excerpt; rates above refer to the full screens.

Screening Cc1ccc(C)c(-n2c(SCC(=O)N3CCCC3)nnc2-c2ccccn2)c1 returned GLA inh pH 4.5 0, Rango complex inh -3.8%, Rango release inh -13% and miR-21 FLuc -2%.
For O=C(Oc1ccc2ccc(=O)oc2c1)C1CCCCC1 the results were GLA inh pH 4.5 inconclusive, Rango complex inh inconclusive, Rango release inh inconclusive and miR-21 FLuc -1%.
Screening Cn1c(N)c(C(=O)COC(=O)c2ccc(OC(F)F)cc2)c(=O)n(C)c1=O returned Rango complex inh -2.3% and Rango release inh 6%.
For COc1ccccc1OCCSc1nc(N)cc(N)n1 the results were GLA inh pH 4.5 3, Rango complex inh -6.1%, Rango release inh -10% and miR-21 FLuc -53%.
For Cc1c(Cl)c([N+](=O)[O-])nn1CCCC(=O)Nc1cccnc1 the results were GLA inh pH 4.5 0, Rango complex inh -0.5%, Rango release inh inconclusive and miR-21 FLuc 1%.
For CCn1c(SCC(=O)NNC(=O)c2ccco2)nnc1-c1ccco1 the results were GLA inh pH 4.5 -5, Rango complex inh -0.6%, Rango release inh 9% and miR-21 FLuc -3%.
Cn1cc(S(=O)(=O)N2CCC3(CC2)OCCO3)c(=O)n(C)c1=O was read as GLA inh pH 4.5 3, Rango complex inh 0.0%, Rango release inh 2% and miR-21 FLuc 2%.
Screening CC1CCN(S(=O)(=O)c2ccc3c(c2)N(CC(=O)NCCCN2CC(C)CC(C)C2)C(=O)CS3)CC1 (stereo unspecified) returned Rango complex inh -1.0%, Rango release inh -6% and miR-21 FLuc 0%.
Cc1onc(-c2c(F)cccc2Cl)c1C(=O)c1ccc(F)cc1 was read as GLA inh pH 4.5 -2, Rango complex inh -0.4%, Rango release inh 15% and miR-21 FLuc 7%.
`O=C(NC1=NCCS1)C1CC(=O)N(c2ccccc2)C1` (stereo unspecified) gave GLA inh pH 4.5 -1, Rango complex inh 3.5%, Rango release inh -12% and miR-21 FLuc -3%.
Screening O=C(Nc1cccc(-c2cnc3ccccc3n2)c1)C1CC(=O)N(c2ccccc2)C1 (stereo unspecified) returned Rango complex inh -1.6%, Rango release inh 1% and miR-21 FLuc 8%.
Screening O=C(Nc1cccc(C(=O)N2CCOCC2)c1)c1ccccc1Cl returned Rango complex inh 4.4%, Rango release inh 0% and miR-21 FLuc -2%.
`Cc1c(NC(=O)COc2ccc3ccc(=O)oc3c2)c(=O)n(-c2ccccc2)n1C` gave Rango complex inh inconclusive and Rango release inh -7%.
C=CCn1cc(-c2ccc(Cl)cc2)cc(C#N)c1=O was read as GLA inh pH 4.5 15, Rango complex inh 1.2%, Rango release inh -7% and miR-21 FLuc -2%.
`CCS(=O)(=O)N1CCN(C(=O)C(c2ccccc2)c2ccccc2)CC1` gave GLA inh pH 4.5 -1, Rango complex inh 6.0%, Rango release inh -14% and miR-21 FLuc 2%.
Cc1ccc(NC(=O)CCN2C(=O)c3ccccc3C2=O)c(C)c1 was read as Rango complex inh -0.7%, Rango release inh 5% and miR-21 FLuc -6%.
For FC(F)(F)c1cc(-c2ccco2)nc(-n2cnc3ccccc32)n1 the results were GLA inh pH 4.5 -2, Rango complex inh 2.4%, Rango release inh 2% and miR-21 FLuc -3%.
Screening CC(C)(C)C(=O)Nc1nnc(CCc2ccccc2)s1 returned Rango complex inh -0.7%, Rango release inh -4% and miR-21 FLuc -62%.
`COc1ccc(CCNC(=O)c2ccc(S(=O)(=O)N3CCCCC3)cc2)cc1` gave Rango complex inh 1.4% and Rango release inh -6%.
Screening CCCN(CC(=O)Nc1ccccc1C)C(=O)CSc1ccccc1C returned Rango complex inh 0.2% and Rango release inh 9%.

By substructure, the entries above containing four or more nitrogen atoms (seven)
Screening Cc1ccc(C)c(-n2c(SCC(=O)N3CCCC3)nnc2-c2ccccn2)c1 returned GLA inh pH 4.5 0, Rango complex inh -3.8%, Rango release inh -13% and miR-21 FLuc -2%.
For COc1ccccc1OCCSc1nc(N)cc(N)n1 the results were GLA inh pH 4.5 3, Rango complex inh -6.1%, Rango release inh -10% and miR-21 FLuc -53%.
For Cc1c(Cl)c([N+](=O)[O-])nn1CCCC(=O)Nc1cccnc1 the results were GLA inh pH 4.5 0, Rango complex inh -0.5%, Rango release inh inconclusive and miR-21 FLuc 1%.
For CCn1c(SCC(=O)NNC(=O)c2ccco2)nnc1-c1ccco1 the results were GLA inh pH 4.5 -5, Rango complex inh -0.6%, Rango release inh 9% and miR-21 FLuc -3%.
Screening CC1CCN(S(=O)(=O)c2ccc3c(c2)N(CC(=O)NCCCN2CC(C)CC(C)C2)C(=O)CS3)CC1 (stereo unspecified) returned Rango complex inh -1.0%, Rango release inh -6% and miR-21 FLuc 0%.
Screening O=C(Nc1cccc(-c2cnc3ccccc3n2)c1)C1CC(=O)N(c2ccccc2)C1 (stereo unspecified) returned Rango complex inh -1.6%, Rango release inh 1% and miR-21 FLuc 8%.
For FC(F)(F)c1cc(-c2ccco2)nc(-n2cnc3ccccc32)n1 the results were GLA inh pH 4.5 -2, Rango complex inh 2.4%, Rango release inh 2% and miR-21 FLuc -3%.

Remaining list, next part:
Screening O/N=C/c1cc(Cl)ccc1OCc1cccc2ccccc12 returned GLA inh pH 4.5 -1 and miR-21 FLuc -21%.
Screening COc1cccc(CNC(=O)c2cc(S(=O)(=O)N3CCOCC3)ccc2N2CCCC2)c1 returned Rango complex inh 0.4% and Rango release inh -5%.
`COCCNC(=O)c1ccc(CS(=O)(=O)c2ccc(Cl)cc2)o1` gave GLA inh pH 4.5 8, Rango complex inh 1.7%, Rango release inh 1% and miR-21 FLuc 0%.
O=C(NC1CCCC1)C(c1ccncc1)N(C(=O)c1csnn1)c1ccc(F)c(Cl)c1 (stereo unspecified) was read as Rango complex inh 0.2%, Rango release inh 1% and miR-21 FLuc -3%.
Screening CC(C)CCn1c(=O)c2ccccc2n2c(CN3CCCC3)nnc12 returned GLA inh pH 4.5 -6, Rango complex inh -0.6%, Rango release inh 6% and miR-21 FLuc -5%.
COc1cccc(N2CCN(S(=O)(=O)c3cccc4nsnc34)CC2)c1 was read as GLA inh pH 4.5 -11, Rango complex inh 1.4%, Rango release inh 0% and miR-21 FLuc -2%.
`Cc1cc(=O)nc2c3ccccc3n(C(C)C(=O)Nc3cc(F)ccc3F)n12` (stereo unspecified) gave GLA inh pH 4.5 0, Rango complex inh -2.1%, Rango release inh -10% and miR-21 FLuc 7%.
Cc1ccc(S(=O)(=O)CCC(=O)NC2CCCC2)cc1 was read as Rango complex inh 0.1%, Rango release inh -5% and miR-21 FLuc 0%.
`O=C(Nc1ccccc1)Nc1snnc1C(=O)Nc1cccc(O)c1` gave GLA inh pH 4.5 -5, Rango complex inh -0.2%, Rango release inh 1% and miR-21 FLuc -12%.
For O=c1[nH]c(CSc2ncc(C(F)(F)F)cc2Cl)nc2cc(C(F)(F)F)ccc12 the results were GLA inh pH 4.5 -2, Rango complex inh inconclusive, Rango release inh inconclusive and miR-21 FLuc -2%.
For O=C(CN1CCCCCC1)N1c2ccccc2C=Cc2ccccc21 the results were GLA inh pH 4.5 3, Rango complex inh -0.5%, Rango release inh -9% and miR-21 FLuc 0%.
COc1cc(OC)c(/C=N/n2c(C)nnc2C)c(OC)c1 was read as GLA inh pH 4.5 -2, Rango complex inh -0.2%, Rango release inh 0% and miR-21 FLuc 0%.
For Cc1ccc(C)c(CSCC(=O)NCc2cccs2)c1 the results were GLA inh pH 4.5 3, Rango complex inh -1.6%, Rango release inh 13% and miR-21 FLuc 4%.
For Nc1nc(CSc2nnc(-c3cccc(F)c3)n2-c2ccccc2)nc(N2CCOCC2)n1 the results were GLA inh pH 4.5 -2, Rango complex inh 7.8%, Rango release inh -6% and miR-21 FLuc 1%.
Cc1ccc(NC(=O)CN(C)C(=O)c2cc3ccccc3o2)cc1 was read as GLA inh pH 4.5 1, Rango complex inh 3.6%, Rango release inh -13% and miR-21 FLuc -1%.
For COCCN(CCOC)C(=O)c1ccc(CSc2nc3ccccc3s2)cc1 the results were Rango complex inh 3.2%, Rango release inh 14% and miR-21 FLuc -12%.
`CC(=O)Nc1sc(C)c(C)c1C(=O)OCC(=O)Nc1ccc(S(N)(=O)=O)cc1` gave Rango complex inh 0.0% and Rango release inh 1%.
`COC(=O)C1(C(C[N+](=O)[O-])c2ccco2)C(=O)NCC1c1ccccc1` (stereo unspecified) gave GLA inh pH 4.5 -18, Rango complex inh 4.7%, Rango release inh -4% and miR-21 FLuc 5%.
`O=C(c1cc(-c2ccccc2O)on1)N1CCOCC1` gave Rango complex inh -3.3%, Rango release inh 7% and miR-21 FLuc -80%.
Screening NS(=O)(=O)c1ccc(CCNC(=O)/C=C/c2ccc(S(=O)(=O)N3CCOCC3)cc2)cc1 returned Rango complex inh -0.1% and Rango release inh -2%.
CCOc1c(OC(C)=O)ccc(/C=C2\N=C(SCC)SC2=O)c1[N+](=O)[O-] was read as GLA inh pH 4.5 -5, Rango complex inh -1.4%, Rango release inh -8% and miR-21 FLuc -5%.
Screening C/C(=N\N=C1\NC(=O)C(CC(=O)NCc2ccccc2)S1)C(C)C (stereo unspecified) returned GLA inh pH 4.5 -15, Rango complex inh 0.3%, Rango release inh -7% and miR-21 FLuc 0%.
For Cc1c([N+](=O)[O-])cc(S(=O)(=O)Nc2ccc(-c3ccc(N4CCCC4)nn3)cc2)cc1[N+](=O)[O-] the results were Rango complex inh 1.9% and Rango release inh -1%.
Screening COc1cc(C(=O)Nc2ccc3c(c2)OCO3)ccc1OCc1c(C)noc1C returned GLA inh pH 4.5 -8, Rango complex inh -2.1%, Rango release inh 0% and miR-21 FLuc -27%.
Screening Cc1cc(C(=O)CN2C(=O)C(=O)N(Cc3ccccc3)C2=O)c(C)n1CC1COc2ccccc2O1 (stereo unspecified) returned GLA inh pH 4.5 -5, Rango complex inh -1.6%, Rango release inh -12% and miR-21 FLuc 16%.
Cc1c(C(=O)O)[nH]c2c1C(=O)CC(c1ccc(C(C)(C)C)cc1)C2 (stereo unspecified) was read as Rango complex inh -1.6%, Rango release inh 16% and miR-21 FLuc -48%.
For CCN(C(=O)COC(=O)c1ccccc1SCC(=O)N1CCCC1)C1CCS(=O)(=O)C1 (stereo unspecified) the results were Rango complex inh 1.1% and Rango release inh 1%.
CCOCCCn1c(SCC(=O)NCc2ccc3c(c2)OCO3)nc2ccccc2c1=O was read as GLA inh pH 4.5 1, Rango complex inh -3.5%, Rango release inh 28% and miR-21 FLuc -8%.
`CC(=O)Nc1ccc(NC(=O)CN(c2cc(Cl)ccc2Cl)S(C)(=O)=O)cc1` gave GLA inh pH 4.5 -7, Rango complex inh 0.0%, Rango release inh 1% and miR-21 FLuc 8%.
COC(=O)C(Cc1ccc(O)cc1)NC(=O)CCc1ccco1 (stereo unspecified) was read as Rango complex inh inconclusive, Rango release inh 11% and miR-21 FLuc -1%.
`Cc1cc(C)nc(N2CCC(C(=O)NCCc3ccc(Cl)cc3)CC2)n1` gave GLA inh pH 4.5 8, Rango complex inh 1.2%, Rango release inh 10% and miR-21 FLuc -1%.
For Cc1cccc2nc(COc3ccc(-c4ccccc4)cc3)cn12 the results were GLA inh pH 4.5 -8 and miR-21 FLuc -32%.
Screening CN(Cc1nc2ccccc2c(=O)[nH]1)C(=O)C1CC(=O)N(c2cccc3ccccc23)C1 (stereo unspecified) returned Rango complex inh 0.0% and Rango release inh 22%.
For COc1ccc(C(CNC(=O)CCNC(=O)c2ccccc2OC)N2CCCC2)cc1 (stereo unspecified) the results were Rango complex inh -3.1% and Rango release inh -5%.
Screening CCOP(=O)(OCC)c1cccc(P(=O)(c2ccccc2)c2ccccc2)c1O returned Rango complex inh -1.6%, Rango release inh -14% and miR-21 FLuc -4%.
O=C1c2ccccc2CC1Sc1nnc(-c2ccccn2)o1 (stereo unspecified) was read as GLA inh pH 4.5 4, Rango complex inh 3.3%, Rango release inh 3% and miR-21 FLuc -40%.
COC(=O)c1ccc(NC(=O)C2CCCN2C(=O)OCc2ccccc2)cc1 (stereo unspecified) was read as Rango complex inh 5.2%, Rango release inh 15% and miR-21 FLuc 0%.
For O=C(Cn1cnc2cc([N+](=O)[O-])ccc2c1=O)Nc1ccc(N2CCOCC2)cc1 the results were GLA inh pH 4.5 -5, Rango complex inh 3.0%, Rango release inh 6% and miR-21 FLuc -4%.
`CC(C)NC(=O)COC(=O)c1ccccc1CSC1=NCCS1` gave Rango complex inh 5.3%, Rango release inh -12% and miR-21 FLuc -7%.
